Source: PubChem (Broad Institute)
MITF inh: blocks MITF activity; hit rate 0.28% among 37,000; TRPM1 promoter luciferase, luminescence, 24 h; inhibition, % (test concentration not listed);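 active = most replicates at 85% or more, or half of them and the mean; inconclusive = half reach 85% but not the mean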;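 also: human melanocyte line stably carrying TRPM1 promoter luciferase reporter; 0% = vehicle wells and 100% = a positive control; the first replicate is given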
PD-1 reverse act: activators reversing PD-1 mediated T-cell inhibition; activation, % (test concentration not listed); primary human CD4 T cells, PD-L1 beads, CellTiter-Glo 96 h; 29,000 tested, under 10 active;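 active = replicate mean of 50% or more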;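 also: 0% = median vehicle wells and 100% = positive control; 100 nL library stock added to about 50 µL; numbers are from one replicate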
YB-1 expr inh: YB-1 expression inhibition. hit rate 0.37% among 30,000. delta delta Cp (YB-1 minus CDIP) (concentration not given with the values). U2OS, qRT-PCR YB-1 vs CDIP delta delta Cp, 16 h; active compounds read high; zero = DMSO, each unit about twofold;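 active = delta delta Cp rounded down to an integer at or above 3, about 3 SD of DMSO wells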;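 also: higher means less YB-1 transcript or more CDIP transcript relative to DMSO; stock transfer was 100 nL into about 100 µL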
Hedgehog inh: Sonic Hedgehog pathway inhibition; inhibition, % (no concentration beside the values); Shh-LIGHT2 Gli-luciferase reporter, 30 h; hit rate 2.1% among 22,000;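 active = replicate mean of 65% or more; inconclusive = mean lower but half the replicates past it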;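 also: pathway switched on by Shh-conditioned medium diluted 1 in 25 in low serum; 100 nL library stock added to about 40 µL; 0% = median of neutral wells and 100% = positive control level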
* = called active by the depositor; ? = inconclusive; nt = not tested or not shown. An excerpt, so the mix of outcomes need not match the whole.

SMILES	MITF inh	PD-1 reverse act	YB-1 expr inh	Hedgehog inh
COc1ccc(NC(=O)N(C)C[C@@H]2Oc3ccc(NC(=O)Nc4ccc5c(c4)OCO5)cc3CC(=O)N([C@H](C)CO)C[C@@H]2C)cc1	-1	nt	-0.2	-26
C[C@@H]1CN([C@@H](C)CO)C(=O)Cc2cc(NS(=O)(=O)c3ccc(Cl)cc3)ccc2O[C@@H]1CN(C)S(=O)(=O)c1ccccc1	7	-0.9	0.18	-44
C[C@H]1CCC[C@@H](O)CC(=O)c2c(O)cc(O)cc2CC(=O)O1	-4	1.7	0.24	3
C[C@@H]1CN([C@@H](C)CO)C(=O)c2cccc(NC(=O)Nc3ccc(F)cc3)c2O[C@H]1CN(C)S(=O)(=O)c1cn(C)cn1	-9	1.6	0.55	17
Clc1cc2c(c(C[n+]3ccccc3)c1)OCOC2	11	1.7	-0.11	-26
C[C@H]1CN([C@@H](C)CO)C(=O)c2cc(NC(=O)CCCN(C)C)ccc2O[C@H]1CN(C)Cc1ccc2c(c1)OCO2	-12	1.1	-0.12	nt
CC1(C)CC[C@]2(C(=O)O[C@@H]3O[C@H](CO)[C@@H](O)[C@H](O)[C@H]3O)CC[C@]3(C)C(=CCC4[C@@]5(C)C[C@@H](O)[C@H](O)C(C)(C)C5CC[C@]43C)C2[C@@H]1O (stereo partly drawn)	nt	nt	1.2	-13
CCCCC[C@H](O)/C=C/C1=C(C/C=C\CCCC(=O)O)C(=O)CC1	-4	-1.0	0.47	?
C[C@H](CO)N1C[C@H](C)[C@@H](CN(C)S(=O)(=O)c2ccccc2)Oc2c(NC(=O)Nc3ccc4c(c3)OCO4)cccc2C1=O	-9	nt	-0.15	22
COc1ccc(S(=O)(=O)N(C)C[C@H]2Oc3ccc(NC(=O)Nc4ccccc4)cc3C(=O)N([C@H](C)CO)C[C@@H]2C)cc1	-10	nt	-0.064	-34
Cc1noc(C)c1NC(=O)N(C)C[C@@H]1Oc2c(NC(=O)c3nc4ccccc4s3)cccc2C(=O)N([C@@H](C)CO)C[C@H]1C	2	0.9	0.0039	10
CC(CCc1ccccc1)NCC(O)c1ccc(O)c(C(N)=O)c1 (stereo not drawn)	0	nt	-0.45	-20
C[C@H]1CN([C@@H](C)CO)C(=O)Cc2cc(NC(=O)Cc3ccccc3)ccc2O[C@@H]1CN(C)C	-14	nt	0.13	-4
COc1ccc(N=C(CCCN2C(=O)c3ccccc3C2=O)C2=C(O)CC(C)(C)CC2=O)cc1	-8	0.2	-0.037	8
C[C@@H]1CN([C@H](C)CO)C(=O)c2cc(NC(=O)CCC(F)(F)F)ccc2O[C@@H]1CN(C)S(=O)(=O)c1ccc(Cl)cc1	1	0.6	-0.35	2
C[C@H]1CN([C@@H](C)CO)C(=O)c2cccc(NC(=O)C3CCOCC3)c2O[C@@H]1CN(C)CC1CCCCC1	-3	0.0	-0.22	-42
COc1ccc(NC(=O)CSc2ncnc3scc(-c4ccccc4)c23)c([N+](=O)[O-])c1	2	-1.1	nt	nt
Cc1cc(Br)ccc1NC(=O)CSc1nnc(N)s1	-33	2.3	nt	nt
COc1ccc(S(=O)(=O)Nc2ccc3c(c2)CC(=O)N([C@@H](C)CO)C[C@@H](C)[C@@H](CN(C)S(=O)(=O)c2ccc(F)cc2)O3)cc1	-11	-0.3	0.22	-16
Cc1cc(C(=O)Nc2cccc3c2O[C@H](CN(C)Cc2ccncc2)[C@H](C)CN([C@@H](C)CO)C3=O)n(C)n1	-6	0.7	0.36	13
O=C(NN1C(=O)c2ccccc2C1=O)c1ccccc1	-1	0.3	0.44	-3
C[C@@H]1CN([C@@H](C)CO)C(=O)c2cccc(NC(=O)CCCCCC(=O)Nc3ccccc3N)c2O[C@H]1CN(C)C(=O)Nc1ccc(F)cc1	-6	0.5	-0.34	nt
C[C@H](CO)N1C[C@H](C)[C@H](CN(C)C(=O)NC2CCCCC2)Oc2ccc(NC(=O)C3CCCCC3)cc2CC1=O	-10	-0.2	-0.16	0
c1ccc2c(c1)OCC(c1nnc3sc(-c4cnccn4)nn13)O2 (stereo not drawn)	-12	-1.1	nt	nt
C[C@H](CO)N1C[C@H](C)[C@H](CN(C)S(=O)(=O)c2ccccc2)Oc2c(NC(=O)Nc3ccccc3)cccc2C1=O	-2	-2.5	0.24	15
C[C@@H]1CN([C@@H](C)CO)C(=O)c2cc(NC(=O)Cn3cnnn3)ccc2O[C@@H]1CN(C)C(=O)Nc1ccc(C(F)(F)F)cc1	2	0.4	0.19	-6
C[C@@H]1CN([C@H](C)CO)C(=O)c2cccc(NC(=O)Nc3cccc4ccccc34)c2O[C@H]1CN(C)S(C)(=O)=O	9	-1.4	0.0079	9
C[C@@H]1CCCCO[C@H](CN(C)C(=O)C2CCCCC2)[C@@H](C)CN([C@H](C)CO)C(=O)c2cc(NS(=O)(=O)c3cccs3)ccc2O1	10	nt	-0.55	-6
C[C@@H]1CN([C@@H](C)CO)C(=O)c2cc(NC(=O)CCN3CCOCC3)ccc2O[C@@H]1CN(C)C(=O)Nc1cccc2ccccc12	6	0.9	-0.15	-7
C[C@H]1CN([C@@H](C)CO)C(=O)Cc2cc(NS(=O)(=O)c3ccc(Cl)cc3)ccc2O[C@@H]1CN(C)S(=O)(=O)c1ccccc1	-2	nt	0.17	42
C[C@H]1CN([C@@H](C)CO)C(=O)c2cc(NC(=O)Cc3cn(C)c4ccccc34)ccc2O[C@H]1CN(C)Cc1ccncc1	19	-1.3	-0.28	-1
Clc1cccc(Cl)c1Cn1cnc2c(Oc3cccnc3)ncnc21	-6	0.1	nt	nt
C[C@@H]1CN([C@H](C)CO)C(=O)c2cccc(NC(=O)NC3CCCCC3)c2O[C@@H]1CN(C)C(=O)Nc1ccccc1	1	0.5	0.66	7
CC(C)NC(=O)N(C)C[C@H]1OCCCC[C@@H](C)Oc2ccc(N(C)C)cc2C(=O)N([C@H](C)CO)C[C@@H]1C	-11	-0.1	0.23	-11
COc1cc(OC)c(C2=NOC(C(=O)NCc3cccnc3)C2)cc1Cl (stereo not drawn)	14	2.2	nt	nt
COc1cc(NC(=O)COc2ccc3ccccc3c2Br)c(OC)cc1Cl	-29	-0.1	nt	nt
Cc1noc(C)c1NC(=O)N(C)C[C@@H]1Oc2ccc(NC(=O)C3CC3)cc2C(=O)N([C@@H](C)CO)C[C@H]1C	4	0.8	-0.025	21
CSc1ccccc1NC(=O)CN(c1cccc2ccccc12)S(C)(=O)=O	5	-0.1	nt	nt
C[C@@H]1CCCCO[C@@H](CN(C)C)[C@@H](C)CN([C@H](C)CO)C(=O)c2cc(NS(=O)(=O)c3ccc(F)cc3)ccc2O1	-13	nt	0.19	-8
CC1CC[C@]2(C(=O)OC3OC(COC4OC(CO)C(O)C(O)C4O)C(O)C(O)C3O)CC[C@]3(C(=O)O)C(=CCC4[C@@]5(C)CC[C@H](OC6OC(C)C(O)C(O)C6O)C(C)(C)C5CC[C@]43C)C2C1C (stereo partly drawn)	18	-0.7	0.76	32
Cc1noc(C)c1S(=O)(=O)Nc1ccc2c(c1)C(=O)N([C@H](C)CO)C[C@H](C)[C@@H](CN(C)C(=O)NC(C)C)O2	-2	0.0	-0.11	-23
COc1ccc(S(=O)(=O)Nc2cccc3c2O[C@@H](CN(C)Cc2ccc4c(c2)OCO4)[C@H](C)CN([C@@H](C)CO)C3=O)cc1	-11	nt	-0.13	-43
Cc1ccc(S(=O)(=O)c2nc(S(C)(=O)=O)sc2NCC2CCCO2)cc1 (stereo not drawn)	-16	2.9	nt	nt
C[C@@H]1CN([C@H](C)CO)C(=O)c2cccc(NC(=O)Nc3ccc(F)cc3)c2O[C@H]1CN(C)S(=O)(=O)c1ccc(Cl)cc1	-6	nt	0.12	-7
Cc1ccc(S(=O)(=O)NC(C)C(=O)Nc2cc(C(F)(F)F)ccc2Cl)cc1 (stereo not drawn)	1	0.1	nt	nt
C[C@@H]1CN([C@H](C)CO)C(=O)Cc2cc(NS(=O)(=O)c3ccc(Cl)cc3)ccc2O[C@H]1CN(C)Cc1ccc(C(=O)O)cc1	0	0.8	0.19	-26
C[C@H]1CN([C@@H](C)CO)C(=O)c2cc(NC(=O)C3CCCCC3)ccc2O[C@@H]1CN(C)C	-9	nt	-0.15	nt
Cc1noc(C)c1S(=O)(=O)Nc1cccc2c1O[C@@H](CN(C)C(=O)Nc1ccccc1)[C@@H](C)CN([C@H](C)CO)C2=O	-5	nt	0.0036	-20
CCOc1ccc(NC(=O)c2c(NC(=O)CN(C)C)sc3c2CCC3)cc1	-22	-5.5	nt	nt
C[C@@H]1CN([C@H](C)CO)C(=O)c2cc(NC(=O)CCN3CCOCC3)ccc2O[C@H]1CN(C)S(C)(=O)=O	-3	1.3	0.11	nt
C[C@@H]1CN([C@H](C)CO)C(=O)c2cc(NC(=O)Cn3cnnn3)ccc2O[C@@H]1CN(C)C(=O)Nc1ccc2c(c1)OCO2	-9	nt	0.18	4
C=CCn1c(C)c2cc(Cl)c(Cl)cc2[n+]1C	-11	0.7	-0.27	1
C[C@H]1CN([C@@H](C)CO)C(=O)c2cc(NC(=O)Nc3ccccc3)ccc2O[C@H]1CN(C)C(=O)Nc1ccc(C(F)(F)F)cc1	2	nt	-0.43	-13
C[C@H]1CN([C@@H](C)CO)C(=O)c2cccc(NS(=O)(=O)c3cn(C)cn3)c2O[C@H]1CN(C)S(C)(=O)=O	-8	1.1	0.33	-47
S=C1C=C(N2CCCCC2)CC(c2ccc(Cl)cc2)S1 (stereo not drawn)	21	-1.5	-0.26	nt
Cn1c(Cc2cccc3ccccc23)nnc1SCC(=O)c1ccc(Cl)cc1	-1	-1.1	nt	nt
C[C@@H]1CN([C@H](C)CO)C(=O)c2cc(NC(=O)CCCCCC(=O)Nc3ccccc3N)ccc2O[C@H]1CN(C)C(=O)Nc1ccc(F)cc1	-4	0.7	0.13	nt
Cc1noc(C)c1NC(=O)Nc1ccc2c(c1)C(=O)N([C@H](C)CO)C[C@H](C)[C@H](CN(C)S(=O)(=O)c1ccc(Cl)cc1)OCCCC[C@@H](C)O2	1	0.0	-0.076	-4
C[C@H](CO)N1C[C@H](C)[C@H](CN(C)Cc2ccc(C(F)(F)F)cc2)Oc2ccc(NC(=O)Nc3ccc(C(F)(F)F)cc3)cc2C1=O	24	2.1	0.082	nt
COc1ccc(NC(=O)N(C)C[C@H]2Oc3c(NS(=O)(=O)c4ccc(OC)cc4)cccc3C(=O)N([C@H](C)CO)C[C@H]2C)cc1	2	1.0	-0.047	-25

Remaining list, next part:
SMILES	MITF inh	PD-1 reverse act	YB-1 expr inh	Hedgehog inh
CC(=O)c1cccc(NC(=O)CSc2nnc(-c3cc4ccccc4cc3O)n2C)c1	4	-0.9	nt	nt
C[C@H]1CN([C@@H](C)CO)C(=O)c2cc(NC(=O)Nc3ccccc3)ccc2O[C@@H]1CN(C)S(C)(=O)=O	11	0.8	-0.21	-19
Cn1c(SCC(=O)Nc2c(F)cc(F)cc2Br)nnc1-c1cccnc1	3	1.0	nt	nt
CC(=O)OC1CCC(OC(C)=O)c2c1n([O-])c(C)c(C)[n+]2=O (stereo not drawn)	-16	4.6	0.032	49
O=C(COc1nc(-c2cccs2)cc(C(F)(F)F)n1)Nc1ccc(Cl)cc1Cl	3	-0.7	nt	nt
COc1ccc(CN2CCN(Cc3cccc([N+](=O)[O-])c3)CC2)c(OC)c1OC	-13	0.0	nt	nt
COC(=O)CNC(=O)c1cc2cc(Cl)ccc2oc1=O	-10	2.2	nt	nt
COc1ccc(NC(=O)Nc2cccc3c2O[C@@H](CN(C)Cc2ccc(Oc4ccccc4)cc2)[C@@H](C)CN([C@H](C)CO)C3=O)cc1	-1	-4.1	0.043	18
C[C@@H]1CN([C@H](C)CO)C(=O)c2cc(NS(=O)(=O)c3ccccc3)ccc2O[C@H]1CN(C)Cc1ccncc1	-7	-0.3	0.072	nt
C[C@H](CO)N1C[C@H](C)[C@H](CN(C)C(=O)Nc2ccc(C(F)(F)F)cc2)Oc2c(NS(C)(=O)=O)cccc2C1=O	-3	-0.4	-0.97	-15
C[C@H](CO)N1C[C@H](C)[C@@H](CN(C)Cc2ccc(-c3ccccc3)cc2)Oc2ccc(NC(=O)CCCN(C)C)cc2C1=O	-4	0.0	-0.4	8
CN1CCN(CCOc2ccccc2)CC1	7	0.0	-0.4	-9

Some of the entries so far, with values under each structure:
Sequence of screens – MITF inh	PD-1 reverse act	YB-1 expr inh	Hedgehog inh
> Cn1c(SCC(=O)Nc2c(F)cc(F)cc2Br)nnc1-c1cccnc1
 : 3	1.0	nt	nt
> CC(=O)OC1CCC(OC(C)=O)c2c1n([O-])c(C)c(C)[n+]2=O (stereo not drawn)
 : -16	4.6	0.032	49

Single values from the entries so far.
CN1CCN(CCOc2ccccc2)CC1 in Hedgehog inh → -9
Cn1c(SCC(=O)Nc2c(F)cc(F)cc2Br)nnc1-c1cccnc1 in MITF inh → 3
C[C@H](CO)N1C[C@H](C)[C@H](CN(C)C(=O)Nc2ccc(C(F)(F)F)cc2)Oc2c(NS(C)(=O)=O)cccc2C1=O in MITF inh → -3
C[C@@H]1CN([C@H](C)CO)C(=O)c2cc(NS(=O)(=O)c3ccccc3)ccc2O[C@H]1CN(C)Cc1ccncc1 in PD-1 reverse act → -0.3
C[C@H](CO)N1C[C@H](C)[C@@H](CN(C)Cc2ccc(-c3ccccc3)cc2)Oc2ccc(NC(=O)CCCN(C)C)cc2C1=O in MITF inh → -4
O=C(COc1nc(-c2cccs2)cc(C(F)(F)F)n1)Nc1ccc(Cl)cc1Cl in MITF inh → 3
